Assay outcomes deposited in PubChem by National Center for Advancing Translational Sciences (NCATS).
VDR inh: inhibitors of human vitamin D receptor; P11473; VDR-SRC2-3 peptide fluorescence polarization, 2 h; Potency, µM, for the others: max response, negative = inhibition, most hits filed as inhibitors; hit rate 0.93% among 400,000; AID 504847; active means well fitted inhibition curve with a large enough effect; inconclusive means small, poorly fitted or top-dose-only effect, or another doubt; inactive means no such curve, though single readings can be large or run the other way; further: series mostly up to about 120 µM
Target sequence (P11473 whole entry, looked up): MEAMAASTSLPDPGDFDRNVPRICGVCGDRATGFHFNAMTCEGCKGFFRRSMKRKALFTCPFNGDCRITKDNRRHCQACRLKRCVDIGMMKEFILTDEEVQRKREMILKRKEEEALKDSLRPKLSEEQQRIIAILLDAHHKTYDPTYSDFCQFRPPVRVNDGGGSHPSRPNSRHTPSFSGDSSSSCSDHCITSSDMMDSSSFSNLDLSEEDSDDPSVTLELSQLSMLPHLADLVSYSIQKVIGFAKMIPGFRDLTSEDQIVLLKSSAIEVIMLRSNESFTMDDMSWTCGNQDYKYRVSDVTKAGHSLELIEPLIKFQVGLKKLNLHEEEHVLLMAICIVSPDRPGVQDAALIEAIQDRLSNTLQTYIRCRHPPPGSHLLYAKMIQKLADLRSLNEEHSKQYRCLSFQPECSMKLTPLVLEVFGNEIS
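Measured by FP: displacement of SRC2-3 coactivator peptide from VDR by library compounds, following a two-hour ambient incubation.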
* marks the source's active call; other numbers are inactive results; ? = inconclusive; & = joins results of further samples. On the % scale 0 is the no-effect control and ±100 the full control effect; potency means the concentration at half of the fitted maximal effect.

| canonical_smiles | VDR inh |
| --- | --- |
| CN(C)CCCSC(=N)N | 7% |
| Cc1ccc(NC(=O)C2=CCN(S(=O)(=O)c3ccc(F)cc3)CC2)cc1 | -21% |
| COc1ccccc1CNC(=O)COC(=O)CSc1ccc(F)cc1 | -23% |
| CCOc1ccc(-n2c(=O)c3c4c(sc3n(CC(=O)NCC3CCCO3)c2=O)CCCC4)cc1 (stereo not drawn) | -11% |
| O=C(CCCCCC(=O)N(CCO)CCO)N(CCO)CCO | -17% |
| COc1ccc(CNC(=O)CCc2c(C)nc3nc(CNC(=O)OC(C)(C)C)nn3c2C)cc1 | 2% |
| O=C1c2ccccc2-c2cccc(C(=O)N3CCN(C(=O)c4ccccc4)CC3)c21 | ? |
| COC(=O)c1sc2ncccc2c1OCc1ccc(Cl)cc1Cl | -11% |
| Cc1ccc(NC(=O)Cc2nc(-c3c[nH]c(C(=O)N4CCCC4)c3)cs2)c(C)c1 | -19% |
| CC(C)CN(C(=O)COC(=O)c1c(Cl)ccc(Cl)c1Cl)C1CCS(=O)(=O)C1 (stereo not drawn) | -19% |
| O=c1c[n+]([O-])c2ccccc2n1OCc1ccccn1 | 8% |
| CCOC(=O)c1ccc(CN(Cc2ccccc2C)S(=O)(=O)c2ccc(F)c(C)c2)cc1 | -7% |
| Cc1ccc(C(=O)C[n+]2cc(Br)cc(Br)c2)cc1[N+](=O)[O-] | -7% |
| Cc1cc(C(c2nnnn2Cc2ccccc2)N2CCOCC2)c(C)n1-c1ccc2c(c1)OCO2 (stereo not drawn) | -7% |
| O=C(NCC1CCCO1)c1ccccc1-c1nc(-c2ccccc2)no1 (stereo not drawn) | -3% |
| O=C(c1ccc(Cl)cc1)N1CCCC(c2ccccc2)=N1 | 9% |
| O=C(CNC(c1ccccc1)c1ccccc1)Nc1cc([N+](=O)[O-])ccc1Cl | -5% |
| N=c1oc2ccc3ccccc3c2cc1-c1nc(-c2ccccc2)cs1 | -8% |
| Cc1cccc(NC(=O)[C@@H]2CCCN2S(=O)(=O)c2ccc(Cl)cc2)c1 | 10% |
| CCOC(=O)N1CCN(C(=O)CSc2nnc(COc3ccc(Cl)cc3)o2)CC1 | -17% |
| Cn1ncc(C#N)c1/N=C/N1CCOCC1 | -9% |
| COc1ccc(Cl)cc1C(=O)Nc1ccc2nc(Nc3cccc(Cl)c3)cc(C)c2c1 | 18% |
| CCN(CC)CCN1C(=O)C(=O)/C(=C(/O)c2cnn(-c3ccccc3)c2C)C1c1ccc(C)o1 (stereo not drawn) | 11% |
| CCOC(=O)c1ccccc1NC(=O)COc1ccccc1 | -15% |
| Cc1ccc(S(=O)(=O)c2nc(S(C)(=O)=O)sc2N2CCC(C)CC2)cc1 | -15% |
| CC(CN1CCOCC1)OC(=O)/C=C/c1ccccc1 (stereo not drawn) | 1% |
| Cc1cccc(OCC(=O)N/N=C/C=C/c2ccco2)c1 | ? |
| COc1ccc(OC(C)C(=O)NCc2nc(-c3cccc(C)c3)no2)cc1 (stereo not drawn) | 12% |
| COc1ccc2c(c1OC)C(=O)OC2n1c(O)c(N=NC(C)=O)c2ccccc21 (stereo not drawn) | 4% |
| COCCCN1C(=O)c2ccc(C(=O)OCC(=O)N(CCC#N)c3cc(C)cc(C)c3)cc2C1=O | -19% |

Remaining list, next part.
| canonical_smiles | VDR inh |
| --- | --- |
| Cc1nc2c(nc1C)C(=O)c1ccccc1C2=O | 5% |
| CC1(C)Cc2nc3oc4c(N(CCO)Cc5ccccc5)ncnc4c3cc2CO1 | 4% |
| COc1ccc(OC)c(C(=O)Cn2c3[n+](c4ccc(C(F)(F)F)cc42)CCCCC3)c1 | 10% |
| COC(=O)C[C@H]1c2cc(C(F)(F)F)ccc2S(=O)(=O)N1C1CCCC1 | -17% |
| Cc1cccc(N2CCN(C(=O)c3cc4c(=O)oc5ccccc5c4s3)CC2C)c1 (stereo not drawn) | -2% |
| Cc1cc2oc(C(=O)Nc3nonc3C)c(C)c2cc1C | 7% |
| COc1cccc(CN(C)C(=O)CCNC(=O)c2ccc(Br)cc2)c1 | 12% |
| CN1CCN(C(=O)c2ccccc2-c2nc(-c3ccc(Cl)cc3)no2)CC1 | 9% |
| CCOc1ccc(NC(=O)c2ccc(-c3ccccc3)s2)cc1 | 9% |
| COc1ccc(CCNC(=O)COC(=O)c2ccc(N3CCCC3=O)cc2)cc1OC | 6% |
| CCOc1cc(S(=O)(=O)NC2CC(C)(C)NC(C)(C)C2)ccc1F | 14% |
| Cc1ccc(NC(=O)CCc2c(C)nc3cc(-c4ccccc4)nn3c2C)cc1F | 2% |
| COc1ccccc1CNC(=O)c1cccc(N(C)C)c1 | 7% |
| O=C(COC(=O)Cc1ccc(Cl)cc1)NCc1ccc2c(c1)OCO2 | -3% |
| Cc1nn(CCCC(=O)NCc2ccccc2Br)c(=O)c2c1sc1ccccc12 | 24% |
| COc1cc(OC)c2c(-c3ccccc3)cc(=O)oc2c1C(CCN1CCOCC1)c1ccc2c(c1)OCO2 (stereo not drawn) | -10%&-7% |
| CCOC(=O)CCCCCN(Cc1ccccc1)S(=O)(=O)c1ccc([N+](=O)[O-])cc1 | -11% |
| CCN(CC)CCn1c2ccccc2c(=O)c2c(O)ccc(O)c21 | -21% |
| Cc1cc(C)c(NC(=O)COC(=O)C2CCN(c3ccc(C(F)(F)F)cn3)CC2)c(Cl)c1 | -16% |
| Cc1ccc2c(c1)C(=O)OC(C(=O)Nc1ncc(Cc3ccc(Cl)cc3)s1)C2 (stereo not drawn) | 4% |
| CCOc1ccc(C(=O)Nc2cc(C)ccn2)cc1 | 35µM* |
| CCOc1ccc(C(=O)N2CCCC(c3nc(-c4cccs4)no3)C2)cc1 (stereo not drawn) | 0% |
| O=C(COC(=O)c1ccc(S(=O)(=O)N2CCCC2)cc1)NCCc1ccc(F)cc1 | 27% |
| COc1ccc(C(=O)N(Cc2sccc2C)C2CCS(=O)(=O)C2)cc1Cl (stereo not drawn) | 14% |
| CC(C)n1c(N)c(C#N)c2ccc([N+](=O)[O-])cc2c1=O | -5% |
| O=C(CN1C(=O)/C(=C\c2ccccc2Cl)Oc2ccccc21)NCc1cccnc1 | -7% |
| CC(C)OC(=O)NC(C)(C)COC(=O)Nc1cccc(Cl)c1 | 20% |
| CC(C)c1ccc(NS(=O)(=O)c2cc(Br)cc3c2N(C(=O)C2CC2)CC3)cc1 | -17% |
| Clc1ccc(CSc2nnc(CN3CCOCC3)n2-c2ccccc2)cc1Cl | -2% |
| CCCCCn1nc(C(=O)OCc2nnc(-c3ccccc3)o2)c2ccccc2c1=O | -12% |

(next part)
| canonical_smiles | VDR inh |
| --- | --- |
| COc1ccc(/C=N/NC(=O)c2cc[n+]([O-])cc2)cc1OC | -3% |
| CCOc1ccc(CNC(=O)c2ccc(CS(=O)c3ccccc3)o2)cc1 (stereo not drawn) | 7% |
| COC(=O)c1cccc(Cn2nnc3ccccc3c2=O)c1 | -4% |
| O=C(N1CCCCCC1)N1CCN(S(=O)(=O)N2CCCCC2)CC1 | 22% |
| CCCCOc1ccc(C(=S)N2CCC(C(N)=O)CC2)cc1 | -24% |
| O=C(Nc1ccc(Br)cc1)c1cccc(N2C(=O)C3CCCCC3C2=O)c1 (stereo not drawn) | -7% |
| CN(CC(=O)Nc1c(Cl)cccc1Cl)C(=O)c1ccncc1 | 0% |
| CN(CC(=O)Nc1ccc(F)c(F)c1F)C(=O)CCN1C(=O)C2CCCCC2C1=O (stereo not drawn) | -26% |
| Cc1c(C)c2cc(Cl)c(O)c(CN(C)C)c2oc1=O | -5% |
| COc1ccc(CCNC(=O)CSc2n[nH]c(N)n2)cc1 | -5% |
| Cc1ccc(-c2noc(CCC(=O)NC3CC3)n2)cc1 | -6% |
| CCCCOC(=O)/C=C\C(=O)OCCCC | -6% |
| CCOC(=O)N1CCC(NC(=O)c2cc3c(-c4ccc(Cl)cc4)nn(C)c3s2)CC1 | 1% |
| CCOC(=O)C1=C(N)Oc2cc(C)n(CCc3ccc(OC)c(OC)c3)c(=O)c2C1c1cccnc1 (stereo not drawn) | 19% |
| CCN(CC)C(=O)CSc1nc2ccccc2c(=O)n1CC1CCCCC1 | -4% |
| O=C(COC(=O)Cn1cnc2ccccc21)Nc1ccc(OC(F)F)cc1 | 1% |
| Cc1noc(C)c1C(=O)N1CCC2(CCN(Cc3ccc(C#N)cc3)CC2)CC1 | ? |
| O=C(CSc1nnnn1C1CCCC1)N1CCCCC1 | 13% |
| O=C(c1ccc(F)cc1)C1CCN(C(=S)NCC2CCCO2)CC1 (stereo not drawn) | 4% |
| CC1CCCC(NC(=O)COC(=O)[C@@H](NC(=O)c2ccco2)C(C)C)C1C (stereo partly drawn) | 28% |
| CC(=O)Nc1ccc(S(=O)(=O)Nc2cccc(C(=O)NC(C)(C)C)c2)cc1 | -2% |
| COc1ccc(N(C(C)C(=O)Nc2ccc(S(=O)(=O)N3CCOCC3)cc2)S(C)(=O)=O)cc1 (stereo not drawn) | 5% |
| CCN(CC)S(=O)(=O)c1ccc(N2CCN(C)CC2)c(NC(=O)COc2ccc(F)cc2Cl)c1 | 9% |
| CC(C)(CO)[C@@H](O)C(=O)NCCC(=O)NCCSSCCNC(=O)CCNC(=O)[C@H](O)C(C)(C)CO | -1% |
| O=C(NCc1ccccc1)c1cc2ccccc2oc1=O | -9% |
| COc1ccccc1N1CCN(C(=O)c2ccccc2NC(=O)C2CCCCC2C(=O)O)CC1 (stereo not drawn) | -32% |
| O=C(Cn1cnc(S(=O)(=O)N2CCCC2)c1)Nc1cccc(F)c1 | -8%&-5% |
| O=C(O)c1ccccc1NCc1cccnc1 | -19% |
| O=C(CCC(=O)c1ccc(F)cc1)Nc1cccc(C(F)(F)F)c1 | 13% |
| COC(=O)C(CCCN1C(=O)c2ccccc2C1=O)(NC(C)=O)c1nnn(C)n1 (stereo not drawn) | -8% |

Next compounds follow:
| canonical_smiles | VDR inh |
| --- | --- |
| Cc1nn(C(C)C(=O)NC2CCC(C)CC2)c(=O)c2c1sc1ccccc12 (stereo not drawn) | 14% |
| NS(=O)(=O)c1ccc(CCNC(=S)NC(=O)c2ccccc2Br)cc1 | -5% |
| CC1(c2nnc(Cc3ccccc3)o2)CC(c2ccccc2)=NO1 (stereo not drawn) | 1% |
| Cc1onc(-c2ccccc2)c1C(=O)c1c[nH]c(C(=O)NCc2ccncc2)c1 | 1% |
| Cc1ccc(-n2nc3c(c2NC(=O)c2c(-c4ccccc4Cl)noc2C)CSC3)cc1 | 1% |
| O=[N+]([O-])c1ccccc1NCCOc1ccccc1 | -18% |
| Cc1ccc(-n2nc3c(c2NC(=O)/C=C\c2ccc4c(c2)OCO4)CSC3)c(C)c1 | -8% |
| O=C(NC(=S)Nc1ccccc1Cl)c1cnn2c(C(F)(F)F)cc(C(F)(F)F)nc12 | 3% |
| COC(=O)CC1C(=O)NCCN1C(=O)Nc1ccc(Cl)c(Cl)c1 (stereo not drawn) | 3% |
| O=C(COC(=O)c1ccc(F)cc1Cl)NC(=O)NC1CCCC1 | -17% |
| COc1ccc(CNc2ncnc3ccc(-c4ccccc4C#N)cc23)c(OC)c1 | 1% |
| Cc1cccc(CSc2nc3c(c(=O)[nH]2)CCCC3)c1 | -19% |
| CC1=C(C(=O)Nc2ccc(Cl)cc2)C(c2cccs2)n2nnnc2N1 (stereo not drawn) | -2% |
| Cn1c(=O)c2c(ncn2CC(=O)N/N=C/C=C/c2ccccc2[N+](=O)[O-])n(C)c1=O | 23% |
| CCN(CC)CCNC(=O)c1ccc2c(c1)N(Cc1ccccc1)C(=O)c1ccccc1S2=O (stereo not drawn) | -19% |
| COc1ccc(Br)cc1/C(C)=N/NC1=NCCN1 | -5% |
| O=C1CSC(c2cccnc2)N1c1cccc(Cl)c1 (stereo not drawn) | 2% |
| CC(C)N(C(=O)c1cc2c(Cl)nc3ccccc3c2s1)C1CCCCC1 | 1% |
| CCN(CC)S(=O)(=O)c1ccc(OC)c(NC(=O)C2CC(=O)N(c3ccc(C)cc3)C2)c1 (stereo not drawn) | 13% |
| COc1ccc(S(=O)(=O)Nc2ccccc2Cl)cc1NC(C)=O | -3% |
| Cc1cccc(OCC(=O)NCc2nnc3ccc(C(F)(F)F)cn23)c1C | 12% |
| CCCCOP(=O)(OCCCC)C(Nc1ccccc1)c1ccc2c(c1)OCO2 (stereo not drawn) | -18% |
| Cc1ccc(S(=O)(=O)N2CCC(C)CC2)cc1 | -2% |
| CN(NC1OC(=O)c2ccccc21)c1ccccc1[N+](=O)[O-] (stereo not drawn) | 5% |
| Cc1ccc(NC(=O)CSc2nnc(CN3CCOCC3)n2C)cc1C | -6% |
| CCOC(=O)C1CCC(CN(Cc2cccc(Br)c2)S(=O)(=O)c2ccc(Cl)cc2)CC1 (stereo not drawn) | 11% |
| CC1CCCCN1CCNC(=O)c1cnn2ccccc12 (stereo not drawn) | -15% |
| COc1ccc(CNC(=O)C2CCN(C(=O)N(C)C)CC2)c(OC)c1 | 3% |
| CC(NC(=O)N1CCN(c2ccccc2F)CC1)c1ccc(F)c(F)c1 (stereo not drawn) | 10% |
| S=c1[nH]nc(-c2cccs2)n1Cc1ccccc1 | -21% |
| CCOc1ccc(CCNC(=O)Cn2c(C)c3cnn(-c4ccccc4)c(=O)c3c2C)cc1 | 4% |
| C=CCn1c(SCCOc2ccc(OC)cc2)nnc1C(CO)NC(=O)c1ccc(OC)cc1 (stereo not drawn) | -4% |

Of the compounds above, 5 contain a cyano group:
| canonical_smiles | VDR inh |
| --- | --- |
| Cn1ncc(C#N)c1/N=C/N1CCOCC1 | -9% |
| COCCCN1C(=O)c2ccc(C(=O)OCC(=O)N(CCC#N)c3cc(C)cc(C)c3)cc2C1=O | -19% |
| CC(C)n1c(N)c(C#N)c2ccc([N+](=O)[O-])cc2c1=O | -5% |
| Cc1noc(C)c1C(=O)N1CCC2(CCN(Cc3ccc(C#N)cc3)CC2)CC1 | ? |
| COc1ccc(CNc2ncnc3ccc(-c4ccccc4C#N)cc23)c(OC)c1 | 1% |

An excerpt of these results, with each value named:
Cn1c(=O)c2c(ncn2CC(=O)N/N=C/C=C/c2ccccc2[N+](=O)[O-])n(C)c1=O
  VDR inh: 23%

CCN(CC)CCNC(=O)c1ccc2c(c1)N(Cc1ccccc1)C(=O)c1ccccc1S2=O (stereo not drawn)
  VDR inh: -19%

This is a subset, so the mix of outcomes need not match the whole.
